D2 PAM = potentiates the human D2 dopamine receptor allosterically | P14416 | DiscoveRx D2 beta-arrestin cells, luminescence, 90 min; 100% = 57 uM dopamine signal | potentiation, % (concentration not given with the values) | hit rate 0.23% among 360,000; active = potentiation of 50% or more; inconclusive = 30% to 50%; inactive = 30% or less;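 further: compound concentration not given in the record; tested on top of an EC20 dose of dopamine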
Target sequence (P14416 whole entry, looked up): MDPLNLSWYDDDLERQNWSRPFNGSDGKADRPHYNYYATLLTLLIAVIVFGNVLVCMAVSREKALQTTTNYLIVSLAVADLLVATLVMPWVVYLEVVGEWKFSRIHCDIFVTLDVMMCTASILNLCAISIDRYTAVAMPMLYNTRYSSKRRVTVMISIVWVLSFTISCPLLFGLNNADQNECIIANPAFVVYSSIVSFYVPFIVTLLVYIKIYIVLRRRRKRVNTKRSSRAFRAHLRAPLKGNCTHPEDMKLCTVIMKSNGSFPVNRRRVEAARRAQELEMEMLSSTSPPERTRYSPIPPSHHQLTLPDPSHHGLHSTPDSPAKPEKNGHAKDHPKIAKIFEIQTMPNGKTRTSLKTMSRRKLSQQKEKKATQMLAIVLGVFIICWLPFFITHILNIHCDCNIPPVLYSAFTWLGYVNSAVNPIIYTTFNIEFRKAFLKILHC
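PathHunter D2 cells, attached overnight at 37 deg C, received compound in DMSO plus dopamine at EC20 (50 nM final) for 90 min at 37 deg C. Beta-arrestin recruitment was read as luminescence after 1 h with detection reagent at ambient temperature.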
TRPML1 blocker = human mucolipin-1 channel inhibition | Q9GZU1 | TRPML1-inducible cells, Ca2+ dye fluorescence, FDSS; stronger effect = lower value; inhibition of EC80 agonist-evoked calcium signal | activity change, negative = inhibition, % (concentration not given with the values) | hit rate 0.02% among 390,000 | AID 624415; in the data active means activity change below about -50%; inconclusive means about -30% to -50%; inactive means above about -30%;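 further: stimulus is agonist 54-4 at its EC80 concentration; on the % scale 0 is the no-effect control and ±100 the full control effect; compound concentration not given in the record; the text of the record puts the active cut at -80%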
Target sequence (Q9GZU1 whole entry, looked up): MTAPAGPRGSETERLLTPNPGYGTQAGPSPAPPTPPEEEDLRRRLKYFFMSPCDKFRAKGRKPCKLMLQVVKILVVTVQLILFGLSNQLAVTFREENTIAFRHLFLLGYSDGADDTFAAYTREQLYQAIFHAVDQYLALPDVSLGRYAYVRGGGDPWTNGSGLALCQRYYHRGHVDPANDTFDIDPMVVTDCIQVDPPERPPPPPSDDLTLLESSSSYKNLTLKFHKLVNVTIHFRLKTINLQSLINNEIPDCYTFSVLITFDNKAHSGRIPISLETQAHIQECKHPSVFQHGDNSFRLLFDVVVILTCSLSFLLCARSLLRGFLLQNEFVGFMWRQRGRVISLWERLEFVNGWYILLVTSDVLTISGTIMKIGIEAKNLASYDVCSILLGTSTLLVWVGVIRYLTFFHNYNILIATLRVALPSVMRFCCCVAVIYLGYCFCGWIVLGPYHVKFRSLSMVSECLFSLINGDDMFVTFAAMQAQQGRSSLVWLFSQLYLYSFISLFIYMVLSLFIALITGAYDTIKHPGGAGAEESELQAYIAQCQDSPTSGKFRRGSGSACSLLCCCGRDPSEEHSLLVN
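Calcium fluorescence in TRPML1-DL cells induced overnight with Tet: a 110 s read after compound pin addition, then a 110 s antagonist read after challenge with 54-4 at 4 uM final (EC80).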
Six1-Eya2 inh = inhibitors of human Six1/Eya2 interaction; Q15475+O00167; AID 651725; hit rate 0.56% among 360,000; activity change, % (concentration not given with the values); AlphaScreen GST-Six1/His-Eya2 binding, biochemical; stronger effect = lower value; control for the full effect not named in the record; in the data active = activity change below about -65%; inconclusive = about -30% to -65%; inactive = above about -30%; further: on the % scale 0 is the no-effect control and ±100 the full control effect
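Homogeneous AlphaScreen proximity assay pairing GST-Six1 with His-tagged Eya2 (added as 5X mix: 250 nM and 500 nM) in 50 mM Tris pH 8.0, 300 mM NaCl, 1 mM TCEP. Glutathione donor and nickel acceptor beads; 1 h, 37 °C, dark.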
TRPML1 ag = human mucolipin-1 channel agonism; Q9GZU1; TRPML1-expressing cells, Ca2+ dye fluorescence, FDSS; host cell line not named in the record; reference of the full effect not given here; activation, % (test concentration not listed); hit rate 0.12% among 410,000; AID 624414; in the data active = activation above about 50%; inconclusive = about 30% to 50%; inactive = below about 30%; further: 0% is about no effect; the text of the record puts the active cut at 80%
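Cells: TRPML1-DL, 1X Tet inducer, ~16 h at 37 degrees C/5% CO2. Dye: ABD Ca8 no-wash + quencher, 45-90 min RT. Read: 10 s baseline, compound add, 110 s agonist phase; 54-4 EC80 (4uM final), 110 s antagonist phase.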
CtBP-E1A inh = inhibitors of CtBP/E1A interaction. AlphaScreen GST-E1A/His-CtBP binding, 1536-well; stronger effect = lower value; control for the full effect not named in the record. activity change, % (test concentration not listed). hit rate 0.49% among 340,000. AID 651724; in the data active means activity change below about -65%; inconclusive means about -30% to -65%; inactive means above about -30%; further: on the % scale 0 is the no-effect control and ±100 the full control effect; compound concentration not given in the record
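Homogeneous bead-based format: GST-tagged E1A captured on glutathione donor beads, His-tagged CtBP on nickel acceptor beads; compounds precede bead addition by 2 h at 37 °C.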
TRPV1 potentiator = human TRPV1 potentiation. hit rate 0.02% among 320,000. TRPV1-expressing cells, Fluo-8 calcium influx, capsaicin EC20 potentiation; host cell line not named in the record; control for the full effect not named in the record. potentiation, % at 8.33 µM; active means potentiation above 80%; inconclusive means 30% to 80%; inactive means below 30%; further: 0% is about no effect
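Fluo-8 calcium influx in TRPV1-expressing cells, kinetic read (ex 480/em 520 nm). Compound added and read 3 min for agonist activity, followed by capsaicin at EC20 final and 2 min further read for enhancement.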
Active calls of the source: *; ? = inconclusive; nt = no result given; & = joins results of further samples. Rows are unselected. Share with any hit: about 0.95%.

The opening 4 compounds (preview)
SMILES	D2 PAM	TRPML1 blocker	Six1-Eya2 inh	TRPML1 ag	CtBP-E1A inh	TRPV1 potentiator
NS(=O)(=O)c1ccc(NC(=O)CCCCC(=O)Nc2ccc(S(N)(=O)=O)cc2)cc1	3.4	-19.3	14.0	0.6	2.9	?
CSCC[C@H](NC(=O)Cc1c(C)c2cc3c4c(oc3cc2oc1=O)CCCC4)C(=O)O	-8.5	57.2	-6.3	0.7	nt	7.2
Cc1ccc(S(C)(=O)=O)cc1C(=O)OCC(=O)N(Cc1ccccc1)Cc1ccccc1	4.6	-11.0	-7.3	1.3	nt	-15.3
CN1C(=O)[C@H]2[C@@H](c3ccc(C(F)(F)F)cc3)N[C@]3(CCCN(CC4CCCCC4)C3=O)[C@H]2C1=O	1.1	0.8	0.9	-0.3	-5.5	nt

All compounds of this part, from the start:
SMILES	D2 PAM	TRPML1 blocker	Six1-Eya2 inh	TRPML1 ag	CtBP-E1A inh	TRPV1 potentiator
NS(=O)(=O)c1ccc(NC(=O)CCCCC(=O)Nc2ccc(S(N)(=O)=O)cc2)cc1	3.4	-19.3	14.0	0.6	2.9	?
CSCC[C@H](NC(=O)Cc1c(C)c2cc3c4c(oc3cc2oc1=O)CCCC4)C(=O)O	-8.5	57.2	-6.3	0.7	nt	7.2
Cc1ccc(S(C)(=O)=O)cc1C(=O)OCC(=O)N(Cc1ccccc1)Cc1ccccc1	4.6	-11.0	-7.3	1.3	nt	-15.3
CN1C(=O)[C@H]2[C@@H](c3ccc(C(F)(F)F)cc3)N[C@]3(CCCN(CC4CCCCC4)C3=O)[C@H]2C1=O	1.1	0.8	0.9	-0.3	-5.5	nt
CCCCN(C)C(=O)c1cc2c(Cl)nc3ccccc3c2s1	-3.0	-9.9	5.8	-0.9	14.2	-11.9
CCN(CC)CCNC(=O)c1ccc(NC(=O)/C=C/c2cc(OC)c(OC)c(OC)c2)cc1	-6.3	31.5	-0.4	-0.3	-17.4	29.6
Cc1nnc(SCC(=O)Nc2nsc(-c3ccc(Cl)cc3)n2)s1	3.1	-17.5	-0.5	0.8	8.8	-14.0
CC(O)CNc1cnccn1 (centres undefined)	-2.8	8.8	-0.6	-0.4	-22.1	-3.5
Cc1ccc2nc(-c3ccncc3)cc(C(=O)NCc3ccccc3F)c2c1	-9.1	16.8	-0.2	1.1	1.2	4.0
O=C(NC(C(=O)O)c1ccccc1)c1ccc(S(=O)(=O)N2CCOCC2)cc1 (centres undefined)	5.7	-12.8	4.8	-0.5	-2.5	-4.7

Among those listed so far, 2 contain a COOH group.
SMILES	D2 PAM	TRPML1 blocker	Six1-Eya2 inh	TRPML1 ag	CtBP-E1A inh	TRPV1 potentiator
CSCC[C@H](NC(=O)Cc1c(C)c2cc3c4c(oc3cc2oc1=O)CCCC4)C(=O)O	-8.5	57.2	-6.3	0.7	nt	7.2
O=C(NC(C(=O)O)c1ccccc1)c1ccc(S(=O)(=O)N2CCOCC2)cc1 (centres undefined)	5.7	-12.8	4.8	-0.5	-2.5	-4.7

(listing goes on)
SMILES	D2 PAM	TRPML1 blocker	Six1-Eya2 inh	TRPML1 ag	CtBP-E1A inh	TRPV1 potentiator
CCOn1c(=O)c(C)[n+]([O-])c2ccccc21	9.2	2.7	13.9	-0.9	30.5	-3.7
COc1ccc(NC(=O)CSc2nnc3ccc(-c4cccnc4)nn23)c(OC)c1	5.9	6.9	-0.8	0.7	0.7	5.1
Cc1ccc(S(=O)(=O)NCCC(=O)NC2CCCCCC2)cc1	-68.9	-6.9	1.2	2.6	0.0	-4.0
CC(CC(=O)Nc1ccc2c(c1)c(=O)n(C)n2Cc1ccc(Cl)cc1)C(F)(F)F (centres undefined)	-0.3	16.6	-3.2	-0.5	-3.3	nt
C/C(=N\NC(=O)Nc1ccccc1)c1ccc2ccccc2c1	-8.4	-4.6	5.5	0.9	6.6	-2.5
CCc1c(C)nc2c(OC)cccc2c1SCCC(=O)O	2.9	45.4	12.7	1.4	0.2	19.0
O=C(CCC(=O)N1CCOCC1)c1ccc(F)cc1	5.8	-18.5	-4.3	0.4	-4.5	7.4
COc1ccccc1Nc1nc(N)nc(CN2CCN(Cc3ccc4c(c3)OCO4)CC2)n1	-23.0	20.2	-7.2	1.0	-0.9	2.0
OC(c1ccccc1)c1nc2ccccc2[nH]1 (centres undefined)	-3.9	-4.5	12.2	0.6	-4.2	-3.1
CC(=O)Oc1cccc(N2C(=O)C3C4C=CC(CC4)C3C2=O)c1 (centres undefined)	-0.9	33.3	3.7	0.5	4.0	16.9
COc1cccc(OC)c1C(=O)N1CCN(Cc2ccc3c(c2)OCO3)CC1	-9.9	-2.2	-2.1	-0.2	3.7	-19.2
N#Cc1ccc(C(c2nnnn2Cc2ccccc2)N2CCCC2)cc1 (centres undefined)	-4.5	4.7	-3.7	0.0	-1.7	-7.5
O=C(COc1cc(Cl)c(Cl)cc1Cl)Nc1ccncc1	11.0	4.0	-9.8	-1.0	-1.2	-8.5
CCC1S/C(=N/N=C/c2ccco2)N(Cc2ccc(F)cc2)C1=O (centres undefined)	-20.4	-15.1	-2.0	1.8	nt	4.4
O=C(Nc1ccc2c(c1)OCO2)c1ccc(CN2CCOCC2)cc1	-4.8	-4.9	-4.7	-0.6	-7.3	-36.9
Cc1cccc(N(CC(=O)NCc2ccc3c(c2)OCO3)C(=O)CCC(=O)Nc2ccccn2)c1	-25.7	19.3	-9.8	0.0	-12.5	3.2
CC(C)CCN(C)c1ccc(/C=N/n2cnnc2)cc1	?	13.5	-1.5	-1.6	6.7	-10.3
O=C(N/N=C/c1cc([N+](=O)[O-])ccc1O)C1CCCCC1	-39.6	8.2	-73.9*	-0.4	-72.7*	-8.8
COc1ccc(NS(=O)(=O)c2cccc(C(=O)O)c2)cc1S(=O)(=O)N1CCOCC1	-15.6	4.9	7.9	-0.1	23.0	nt
CCCCn1nnnc1C(CCc1ccccc1)N1CCN(C/C=C/c2ccccc2)CC1 (centres undefined)	-12.1	nt	-7.1	13.5	-28.9	nt
CCOc1cc(/C=N/NC(=O)CN2CCCCC2)ccc1O	-7.2	12.8	-22.7	0.3	-5.4	9.5
O=C(NCc1ccccc1)C(c1ccco1)N(C(=O)c1csnn1)C1CC1 (centres undefined)	3.3	19.0	7.9	0.1	7.8	-21.8
COc1ccc(OC)c(CCNC(=O)c2ccc(CS(=O)(=O)c3ccc(Br)cc3)o2)c1	-4.7	-7.3	4.2	0.6	-6.8	4.0
CCO[C@H]1OC(C(=O)N2CCCCCCC2)=C[C@@H](C)[C@@H]1CCCO	-5.6	-22.5	3.1	3.2	5.5	17.8
O=C1CC(Sc2nnc(-c3ccccc3)o2)C(=O)N1c1ccccc1 (centres undefined)	8.2	3.2	4.0	0.0	2.1	0.7
Cc1cc(-n2c(C)cc(C(=O)CSc3nncn3C)c2C)no1	-1.1	-11.4	-2.2	-0.8	-1.9	nt
CC1CC(C)(C)CC2(C1)NC(=O)N(CC(=O)OCC(=O)Nc1cc(S(=O)(=O)N3CCCCC3)ccc1Cl)C2=O (centres undefined)	-10.2	-1.3	2.3	-0.7	-21.4	nt
COCCn1c(SCc2nc(N)nc(Nc3ccccc3C)n2)nc2ccccc2c1=O	2.3	-5.5	2.7	1.6	0.3	8.3
Cn1c(CNC(=O)CNC(=O)c2ccccc2)cc(=O)n(C)c1=O	6.4	-0.7	3.3	-0.2	0.4	7.1
Cc1[nH]c2ccccc2c1SCC(=O)NC1CCCCC1	-6.5	6.9	-2.4	1.9	nt	?
CNCC(=O)Nc1c(C)n[nH]c1C	-2.7	-8.1	6.2	-0.7	15.7	-2.3
O=C(NC(=S)N1CCN(C/C=C/c2ccccc2)CC1)c1ccco1	-14.7	-18.0	-6.3	1.6	2.5	18.3
O=C(CN1CCC(n2nnc3ccccc32)CC1)NCc1cccs1	-17.7	20.3	0.8	-0.4	1.9	0.3
Cc1ccc(S(=O)(=O)NCc2ccccc2)cc1C(=O)N1CCN(S(=O)(=O)c2ccccc2F)CC1	-5.5	-11.5	-4.3	0.3	-1.7	nt
O=C(C1CCCN1S(=O)(=O)c1cccc2nsnc12)N1CCN(c2ccc(F)cc2)CC1 (centres undefined)	-6.9	-16.6	1.8	-1.2	-9.8	-11.0
CCOC(=O)N/N=C/c1c(C)nn(-c2cccc(C(F)(F)F)c2)c1Cl	-1.4	57.4	4.1	1.8	2.6	0.2
CC(=O)C(Cc1ccccc1)NC(=O)CN1CCN(Cc2ccccc2)CC1 (centres undefined)	-9.9	-17.6	4.2	0.6	-5.8	23.7
CC(Sc1nc(N)cc(=O)[nH]1)C(=O)Nc1ccc(N2CCOCC2)cc1 (centres undefined)	7.6	-6.2	-2.4	-0.9	-4.0	nt
COc1ccc2c(c1)sc1nc(-c3ccccc3)cn12	6.3	1.1	39.3	1.4	0.1	-11.3
Cc1ccc2cc3cc(C(=O)N4CC(C)CC(C)C4)oc3nc2c1 (centres undefined)	-6.3	-1.8	4.5	-0.4	11.7	-10.7
Clc1ccc(-c2cn3cccnc3n2)cc1	-15.4	-4.5	-0.4	2.2	-0.9	-1.8
CC1CCN(C(=O)C2CCN(S(=O)(=O)c3cccc4nonc34)CC2)CC1	-13.1	14.3	0.6	2.0	0.0	-6.8
CS(=O)(=O)N1CCC(Oc2ccccc2C(=O)NC2CCCCCC2)CC1	1.1	2.2	0.5	-1.0	1.5	-18.2
Cc1ccc(CNc2nc(N)c([N+](=O)[O-])c(NCc3ccccc3)n2)cc1	-3.9	-0.9	-6.0	-0.5	1.8	5.6
O=C(C[n+]1ccccc1)Nc1nc2ccccc2s1	-6.4	5.8	0.5	-0.2	5.8	17.3
Cn1cccc1C(=O)Nc1nccs1	9.0	-4.3	-0.2	-0.7	-1.9	1.5
CC(C)C[C@H](NC(=O)Nc1cccc(Br)c1)C(=O)O	-4.5	10.8	7.6	-0.4	0.5	4.2
COc1ccc(/C=N/NC(=S)Nc2ccccc2)cc1	-4.5	-6.3	5.1	0.2	-5.0	-6.5
O=C(O)CCC(=O)NNC(=O)CCC(=O)NCc1ccccc1	-1.1	-8.1	-2.5	-0.6	4.3	-12.6
c1ccc(CNc2ncnc3nc[nH]c23)cc1	-10.3	-4.1	8.4	-0.7&-0.4&0.6	-2.2	13.5

Later entries.
SMILES	D2 PAM	TRPML1 blocker	Six1-Eya2 inh	TRPML1 ag	CtBP-E1A inh	TRPV1 potentiator
Cc1ccc(C)c(NC(=O)CN(C)C(=O)c2ccncc2)c1	-7.1	0.7	3.0	-0.6	0.7	0.6
CC(=O)Nc1cccc(C(=O)OCC(=O)NC(=O)c2ccccc2)c1	-2.7	-13.3	-1.3	-0.1	3.0	6.9
COc1ccc(CCNC(=O)c2cc(-c3ccco3)on2)cc1OC	-6.4	4.5	-10.8	4.4	4.1	-3.9
CCOCCCNC(=O)Cn1ncc2c(=O)oc3ccccc3c21	-4.8	5.9	-0.4	-0.2	1.2	-3.5
C=Cc1cccc(NC(=O)COc2ccccc2)c1	-24.5	-2.4	-0.1	0.8	2.0	-23.5
Fc1ccccc1Cn1nnc2c(NCc3ccccn3)ncnc21	3.3	1.8	5.8	0.2	2.7	-14.9
COc1ccc(O)c(CNn2c(-c3ccc(Br)cc3)nc3ccccc3c2=O)c1	7.6	1.2	6.9	1.7	-4.2	-3.6
NS(=O)(=O)c1ccc(CNC(=S)NC2CCCC2)cc1	3.0	-5.6	13.2	-0.4	1.1	-10.2

Screening results from PubChem.
